MLL AF4-AF9 inh – blocks AF4 peptide binding to human AF9; AlphaScreen, biotin-AF4 peptide binding to FLAG-AF9; P42568; inhibition, % at 10 µM; AID 651704; actives 0.47% (n = 350,000);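 active = every replicate reaching a set inhibition limit, whatever the replicate mean, cut at about 25% in these data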;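 note: 0% = plate neutral control median and 100% = total signal loss; the record names both 10 and 1 µM as test concentration; the first replicate is given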
Target sequence (P42568 whole entry, looked up): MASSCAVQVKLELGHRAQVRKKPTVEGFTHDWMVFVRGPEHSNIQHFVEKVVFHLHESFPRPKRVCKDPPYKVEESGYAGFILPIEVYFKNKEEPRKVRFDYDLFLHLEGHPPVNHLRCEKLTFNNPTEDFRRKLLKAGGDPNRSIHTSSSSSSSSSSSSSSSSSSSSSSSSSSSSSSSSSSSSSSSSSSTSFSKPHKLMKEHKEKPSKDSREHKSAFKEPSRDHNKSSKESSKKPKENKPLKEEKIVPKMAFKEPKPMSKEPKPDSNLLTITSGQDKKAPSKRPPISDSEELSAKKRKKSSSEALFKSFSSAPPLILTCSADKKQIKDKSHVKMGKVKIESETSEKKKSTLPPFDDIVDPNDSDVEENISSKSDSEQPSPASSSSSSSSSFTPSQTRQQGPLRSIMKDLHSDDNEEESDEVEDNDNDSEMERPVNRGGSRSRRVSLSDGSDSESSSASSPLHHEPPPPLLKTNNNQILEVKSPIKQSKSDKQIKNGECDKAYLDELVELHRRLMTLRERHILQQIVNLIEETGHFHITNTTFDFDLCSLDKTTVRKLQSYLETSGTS
Ecoli rRNA inh – inhibits bacterial ribosomal RNA function over humanized ribosomes; actives 1.6% (n = 350,000); E. coli WT GFP vs humanized-ribosome RFP mutants, fluorescence, 24 h; hits give low values; DMSO median 0, no signal -100; AID 720706; GFP signal change (wild-type ribosome), % (test concentration not listed);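 active = significant combined selectivity score with lowered wild-type GFP, culture density cut under 30%, mutant RFP and density less affected; inactive = any of these conditions unmet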; note: one replicate is shown; some compounds called inactive have numbers as strong as hits
Ecoli rRNA inh OD600 – recorded beside Ecoli rRNA inh, whose call it bears; OD600 change, %; measured here: OD600 growth;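 optical density of the mix in the first replicate; 0 = DMSO median and -100 = no signal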
Ecoli rRNA inh RFP – further read-out of Ecoli rRNA inh, marked with its call; RFP signal change, %; measured here: RFP humanized mutant strains;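 first replicate; 0 = DMSO median and -100 = no signal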
The depositor's hits bear a star.

Short forms: A = MLL AF4-AF9 inh; B = Ecoli rRNA inh; C = Ecoli rRNA inh OD600; D = Ecoli rRNA inh RFP
1	COc1cccc(-c2ccc3n(c2=O)C[C@H]2[C@H](CO)[C@@H](C(=O)NC4Cc5ccccc5C4)N[C@@H]32)c1
  A: 7.6; B: -13; C: -17; D: -0.1

2	C[C@@H]1CN([C@@H](C)CO)C(=O)Cc2cc(NC(=O)NC3CCCCC3)ccc2O[C@@H]1CN(C)C(=O)Nc1ccccc1
  A: -3.9; B: 4; C: 5; D: -0.8

3	C[C@H]1CN([C@@H](C)CO)C(=O)c2cccc(NC(=O)c3nc4ccccc4s3)c2O[C@H]1CN(C)Cc1ccc(-c2ccccc2)cc1
  A: 4.8; B: 3; C: 7; D: 1.6

4	C[C@@H]1CN([C@H](C)CO)C(=O)c2cc(NC(=O)Nc3ccc4c(c3)OCO4)ccc2O[C@@H](C)CCCCO[C@@H]1CN(C)CC1CCCCC1
  A: -15; B: -18; C: -27; D: 24

5	COc1ccc(NC(=O)Nc2ccc3c(c2)C(=O)N([C@H](C)CO)C[C@H](C)[C@@H](CN(C)C(=O)NC2CCCCC2)OCCCC[C@@H](C)O3)cc1
  A: -1.8; B: 4; C: 10; D: -2.1

6	C[C@@H]1CCCCO[C@@H](CN(C)S(=O)(=O)c2ccc(F)cc2)[C@H](C)CN([C@H](C)CO)C(=O)c2cc(NC(=O)CCCN(C)C)ccc2O1
  A: 6.1; B: -1; C: 1; D: -2.3

7	CS(=O)(=O)Nc1ccc2c(c1)[C@H]1C[C@@H](CC(=O)NCc3ccc(Cl)cc3)O[C@H](CO)[C@H]1O2
  A: 0.7; B: 0; C: 2; D: 0.5

8	C[C@H](CO)N1C[C@H](C)[C@@H](CN(C)Cc2cccnc2)Oc2ncc(-c3ccncc3)cc2C1=O
  A: -5.3; B: 5; C: 18; D: -2.8

9	C[C@@H]1CN([C@H](C)CO)C(=O)c2cc(-c3ccccc3F)cnc2O[C@@H]1CN(C)Cc1ccc(F)cc1
  A: -7.5; B: 0; C: 2; D: -0.9

10	C[C@@H]1CN([C@@H](C)CO)C(=O)c2cccc(NS(=O)(=O)c3ccccc3)c2O[C@@H]1CN(C)S(C)(=O)=O
  A: -2.9; B: 3; C: 8; D: -1.4

11	O=C(C[C@@H]1CC[C@@H](NC(=O)c2ccncc2)[C@H](CO)O1)Nc1ccc(-c2ccccc2)cc1
  A: -9.2; B: -3; C: -2; D: 2.1

12	CCCNC(=O)N1[C@H](CO)[C@@H](c2ccc(C3=CCCCC3)cc2)[C@@H]1C#N
  A: -2.7; B: -56; C: -75; D: -9.1

13	O=C(c1ccccc1F)N1CC(=O)N2[C@H](CO)[C@H](c3ccc(C#Cc4ccccc4)cc3)[C@H]2C1
  A: -1.6; B: -40; C: -66; D: 2.1

14	COc1ccc(N2C(=O)c3ccccc3NC(=O)C2C(=O)NCCc2ccccc2F)cc1 (configuration not stated)
  A: 7.1; B: 10; C: 5; D: 12

15	O=C(NCc1cc(Cl)cc(Cl)c1)c1ccc2nc([C@@H]3O[C@H](CO)[C@@H](O)[C@H]3O)[nH]c2c1
  A: -2.6; B: 2; C: 9; D: 2.0

16	C[C@H]1CN([C@@H](C)CO)S(=O)(=O)c2ccc(C#CCC3CCCC3)cc2O[C@@H]1CN(C)C(=O)c1cnccn1
  A: 2.4; B: -17; C: -54; D: 22

17	CC(C)NC(=O)Nc1ccc2c(c1)C(=O)N([C@@H](C)CO)C[C@@H](C)[C@H](CN(C)Cc1ccccc1)O2
  A: -0.6; B: 5; C: 11; D: -1.9

18	Cc1noc(C)c1S(=O)(=O)Nc1ccc2c(c1)C(=O)N([C@@H](C)CO)C[C@H](C)[C@H](CN(C)S(=O)(=O)c1cn(C)cn1)O2
  A: -2.0; B: 4; C: 2; D: -1.6

19	CCNC(=O)[C@H]1[C@H](CO)[C@H]2Cn3c(ccc(-c4ccccc4F)c3=O)[C@@H]1N2CCC(F)(F)F
  A: -0.5; B: 1; C: 2; D: 0.6

20	COc1ccc(CN(C)C[C@@H]2OCCCC[C@@H](C)Oc3ccc(NS(=O)(=O)c4cn(C)cn4)cc3C(=O)N([C@H](C)CO)C[C@H]2C)cc1
  A: -13; B: 0; C: 5; D: -2.6

21	C[C@H]1CN([C@@H](C)CO)C(=O)Cc2cc(NC(=O)C3CCCCC3)ccc2O[C@H]1CN(C)S(=O)(=O)c1cn(C)cn1
  A: -3.2; B: 2; C: 1; D: -1.3

22	CCCC#Cc1ccc([C@@H]2[C@@H](CO)N3CCCCN(S(=O)(=O)Cc4ccccc4)C[C@H]23)cc1
  A: 20; B: -58; C: -76; D: -14

23	COCC(=O)N1C[C@H](C)[C@H](OC)CN(C)C(=O)c2cc(NC(=O)C3CCC3)ccc2OC[C@@H]1C
  A: -1.0; B: 0; C: -3; D: -1.4

24	CCC(=O)N1C[C@@H]2[C@H](c3ccccc31)[C@H](CO)N2Cc1ccccc1F
  A: -8.1; B: 1; C: -8; D: -1.4

25	O=C(CC(F)(F)F)N1C[C@@H]2[C@H](c3ccccc31)[C@@H](CO)N2CC1CCOCC1
  A: 2.6; B: 1; C: 8; D: -0.6

Shown in markdown: entries from further up
| item | smiles | MLL AF4-AF9 inh | Ecoli rRNA inh | Ecoli rRNA inh OD600 | Ecoli rRNA inh RFP |
| --- | --- | --- | --- | --- | --- |
| 5 | COc1ccc(NC(=O)Nc2ccc3c(c2)C(=O)N([C@H](C)CO)C[C@H](C)[C@@H](CN(C)C(=O)NC2CCCCC2)OCCCC[C@@H](C)O3)cc1 | -1.8 | 4 | 10 | -2.1 |
| 6 | C[C@@H]1CCCCO[C@@H](CN(C)S(=O)(=O)c2ccc(F)cc2)[C@H](C)CN([C@H](C)CO)C(=O)c2cc(NC(=O)CCCN(C)C)ccc2O1 | 6.1 | -1 | 1 | -2.3 |
| 7 | CS(=O)(=O)Nc1ccc2c(c1)[C@H]1C[C@@H](CC(=O)NCc3ccc(Cl)cc3)O[C@H](CO)[C@H]1O2 | 0.7 | 0 | 2 | 0.5 |

(further entries)
Short forms: A = MLL AF4-AF9 inh; B = Ecoli rRNA inh; C = Ecoli rRNA inh OD600; D = Ecoli rRNA inh RFP
26	O=C(Nc1cccc(C(F)(F)F)c1)Nc1nnc([C@H]2C[C@H](O)[C@@H](CO)O2)s1
  A: 1.6; B: -5; C: 3; D: 2.5

27	CCc1nc2ccc(C(=O)N(CC)CCN(C)C)cn2c1N(C)CCCc1ccccc1
  A: 4.9; B: -4; C: 0; D: -0.3

28	COCC(=O)Nc1ccc2c(c1)C(=O)N(C)[C@H]1CC[C@@H](CC(=O)NCCc3ccccc3)O[C@H]1CO2
  A: -1.6; B: -1; C: -6; D: -2.3

29	C[C@@H]1CCCCO[C@@H](CN(C)C(=O)Nc2ccc3c(c2)OCO3)[C@@H](C)CN([C@@H](C)CO)C(=O)c2cc(NC(=O)Nc3ccc(F)cc3)ccc2O1
  A: 1.2; B: 0; C: 3; D: -3.7

30	CC(C)c1cn(CC[C@H]2CC[C@@H](NS(=O)(=O)c3ccc(Cl)cc3)[C@H](CO)O2)nn1
  A: -0.5; B: 0; C: 1; D: -0.4

31	O=C([C@H]1[C@H](CO)[C@H]2Cn3c(ccc(-c4ccc(F)cc4)c3=O)[C@@H]1N2)N1CCCCC1
  A: -1.8; B: 1; C: 1; D: -2.4

32	COCC(=O)N1[C@H](CO)[C@@H](c2ccccc2-c2cccc(F)c2)[C@@H]1C#N
  A: -3.7; B: 3; C: 18; D: 2.3

33	COc1cc(NCC2COc3c(ccc(OC)c3OC)C2=O)c([N+](=O)[O-])cc1OC (configuration not stated)
  A: 6.0; B: -1; C: 0; D: -0.5

34	CCOC(=O)[C@]12CCCC=C1N(Cc1ccc3c(c1)OCO3)C(=O)[C@H](CC(=O)N1CCN(C(=O)c3ccco3)CC1)C2
  A: 3.4; B: -1; C: -3; D: -2.5

35	CCC(=O)N1C[C@@H](C)[C@H](OC)CN(C)C(=O)c2ccc(NC(=O)C3CCCCC3)cc2OC[C@@H]1C
  A: -1.4; B: -4; C: 1; D: 1.4

36	O=C(c1cccc(F)c1)N1CCCCN2[C@@H](CO)[C@@H](c3ccc(-c4ccccc4)cc3)[C@@H]2C1
  A: -2.8; B: -58; C: -79; D: -12

37	COc1ccc2c3c(n(C)c2c1)[C@H](CO)N(Cc1ccncc1)CC31CN(C(=O)NC(C)C)C1
  A: -2.9; B: 1; C: 1; D: -2.2

38	COc1ccccc1NC(=O)N[C@@H]1CC[C@@H](CCNS(=O)(=O)c2ccc(F)cc2)O[C@@H]1CO
  A: 0.2; B: -1; C: 0; D: -0.7

39	C[C@H]1CCCCO[C@H](CN(C)C)[C@@H](C)CN([C@@H](C)CO)C(=O)c2cc(NC(=O)CCCCCC(=O)Nc3ccccc3N)ccc2O1
  A: 11; B: 1; C: -7; D: -0.5

Sorted by value in Ecoli rRNA inh RFP (rising): 4 of the compounds above
Short forms: A = MLL AF4-AF9 inh; B = Ecoli rRNA inh; C = Ecoli rRNA inh OD600; D = Ecoli rRNA inh RFP
29	C[C@@H]1CCCCO[C@@H](CN(C)C(=O)Nc2ccc3c(c2)OCO3)[C@@H](C)CN([C@@H](C)CO)C(=O)c2cc(NC(=O)Nc3ccc(F)cc3)ccc2O1
  A: 1.2; B: 0; C: 3; D: -3.7

10	C[C@@H]1CN([C@@H](C)CO)C(=O)c2cccc(NS(=O)(=O)c3ccccc3)c2O[C@@H]1CN(C)S(C)(=O)=O
  A: -2.9; B: 3; C: 8; D: -1.4

27	CCc1nc2ccc(C(=O)N(CC)CCN(C)C)cn2c1N(C)CCCc1ccccc1
  A: 4.9; B: -4; C: 0; D: -0.3

14	COc1ccc(N2C(=O)c3ccccc3NC(=O)C2C(=O)NCCc2ccccc2F)cc1 (configuration not stated)
  A: 7.1; B: 10; C: 5; D: 12

Screening data as filed in PubChem BioAssay.

These rows are one share of the data, so the mix of outcomes need not match the whole.
